# Source: PubChem (National Center for Advancing Translational Sciences (NCATS))
# Cruzain noTriton = inhibitors of Trypanosoma cruzi cruzain without detergent. P25779. purified cruzain, Z-FR-AMC fluorescence, no detergent. Potency, µM, without a hit: max response, negative = inhibition, actives largely listed as inhibitors. 200,000 tested, 2.3% active; active means well fitted curve in the direction sought with a large enough effect; inconclusive means small, poorly fitted or top-dose-only effect, or another doubt; inactive means no such curve, though single readings can be large; an effect the other way counts as inactive or inconclusive;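 further: plate controls were enzyme without inhibitor for no effect and buffer without enzyme for full effect; nearly all actives have a fitted effect of over 40% in size; top concentration of the series not given in the record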
# Target sequence (P25779 123-467 limits assumed): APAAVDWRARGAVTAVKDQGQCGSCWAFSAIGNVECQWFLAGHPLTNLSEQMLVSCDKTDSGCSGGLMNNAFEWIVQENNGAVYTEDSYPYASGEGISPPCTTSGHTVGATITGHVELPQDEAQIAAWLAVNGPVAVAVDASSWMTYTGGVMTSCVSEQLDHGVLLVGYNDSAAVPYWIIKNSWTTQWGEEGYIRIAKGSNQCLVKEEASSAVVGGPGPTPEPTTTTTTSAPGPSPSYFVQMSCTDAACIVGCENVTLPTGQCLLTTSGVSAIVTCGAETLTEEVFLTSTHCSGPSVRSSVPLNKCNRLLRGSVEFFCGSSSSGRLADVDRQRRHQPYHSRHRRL
#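 Detergent-free condition (0.00005% Triton X-100) in acetate buffer pH 5.5 with DTT. 1.5 nM enzyme and compound were pre-mixed 15 min, then 2 uM Z-FR-AMC substrate added; reaction progress from fluorescence change between first and third reads (60 s).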
# Cruzain inh Det = cruzain (T. cruzi) inhibition with detergent. P25779. purified cruzain, Z-FR-AMC fluorescence, 0.01% Triton. Potency, µM, inactives show max response, negative = inhibition, hits mostly inhibitors. 200,000 tested, 0.43% active; active means well fitted curve in the direction sought with a large enough effect; inconclusive means small, poorly fitted or top-dose-only effect, or another doubt; inactive means no such curve, though single readings can be large; an effect the other way counts as inactive or inconclusive;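 further: plate controls were neutral wells for no effect and buffer without enzyme for full effect; nearly all actives have a fitted effect of over 40% in size; top concentration of the series not given in the record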
#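 15 min RT preincubation of 1.5 nM cruzain with compound, then 2 uM Z-FR-AMC added; kinetic AMC fluorescence, 60 s delta. Triton X-100 0.01%, pH 5.5.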
# MARV entry inh = blocks Marburg virus binding to or entry into cells | Marburg virus pseudotyped entry inhibition, cell reporter; control for the full effect not named in the record; about a third of the inactives were read at about 46 µM | Potency, µM (highest dose often 37.8 µM), for the others: at the highest dose activity change, negative = inhibition, usual class: inhibitors | 300,000 tested, 1.8% active | AID 540276; active = well fitted inhibition curve with a large enough effect; inconclusive = small, poorly fitted or top-dose-only effect, or effect the other way; inactive = flat fitted curve, though single readings scatter; tested in HEK293 cells; about a fifth of its hits are not listed in these tables; further: on the % scale 0 is the no-effect control and ±100 the full control effect; luciferase read-out
# 2A StopGo = lowers the luciferase signal of an FMDV 2A StopGo reporter; 410,000 tested, 1.2% active; human cells with a luciferase reporter of 2A StopGo recoding; control for the full effect not named in the record; Potency, µM (series often up to 57.9 µM), for the others: at the highest dose signal change, negative = less light; active = well fitted falling curve with a large enough effect; inconclusive = small, poorly fitted or top-dose-only effect; inactive = no such curve, though single readings can be large or run the other way; tested in HEK293T cells; further: on the % scale 0 is the no-effect control and ±100 the full control effect; nearly all actives have a fitted effect of over 45% in size; luciferase light after 4 h
# LASV entry inh = inhibitors of Lassa virus binding or cell entry; 300,000 tested, 1.2% active; Potency, µM (doses to about 37.9 µM), for the others: top-dose activity change, negative = inhibition, most hits filed as inhibitors; Lassa virus pseudotype entry inhibition, cell reporter; control for the full effect not named in the record; AID 540256; active means well fitted inhibition curve with a large enough effect; inconclusive means small, poorly fitted or top-dose-only effect, or effect the other way; inactive means flat fitted curve, though single readings scatter; tested in HEK293 cells; further: on the % scale 0 is the no-effect control and ±100 the full control effect; nearly all actives have a fitted effect of over 50% in size; luciferase read-out
# SARS PLpro yeast = inhibitors of SARS-CoV papain-like protease in yeast; 330,000 tested, 0.19% active; S. cerevisiae expressing SARS-CoV PLpro, growth rescue; control for the full effect not named in the record; AID 485353; Potency, µM (top dose mostly 32.9 µM), for inactives: top-dose activity, positive = growth rescue; further: 0% is about no effect; nearly all actives have a fitted effect of over 55% in size; growth read by luminescence after 48 h
# RE007 growth inh = less growth of the S. pombe RE007 Vpr strain | S. pombe RE007 Vpr strain, BacTiter-Glo ATP luminescence, 24 h; control for the full effect not named in the record | Potency, µM (top dose mostly 92.2 µM), inactives show top-dose activity change, negative = less growth | 360,000 tested, 0.21% active | AID 651644; active = well fitted falling curve with a large enough effect; inconclusive = small, poorly fitted or top-dose-only effect; inactive = no such curve, though single readings can be large or run the other way;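 further: on the % scale 0 is the no-effect control and ±100 the full control effect; nearly all actives have a fitted effect of over 50% in size; the assay follows cell death caused by Vpr and the record does not say whether a fall means rescue or toxicity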
#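 Fission yeast RE007 carrying one integrated HIV-1 vpr copy, seeded at OD 0.01 in PMG+AL medium with 23 nL pinned compound. Grown 24 h at 30 degrees; viability read by BacTiter-Glo luminescence after 5 min.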
# NS1 function inh = influenza NS1 inhibition | 270,000 tested, 0.4% active | Potency, µM (series often up to 46.1 µM), for the others: at the highest dose activity, positive = more growth | S. cerevisiae slowed by influenza A NS1, growth recovery by OD600 | AID 2326; further: actives are rising curves; nearly all actives have a fitted effect of over 50% in size
#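 A cell-based growth assay was used: compounds that relieve NS1-induced slow growth of budding yeast raise OD600. Assay medium was yeast nitrogen base with ammonium sulphate and -URA supplement, pH 6.0, with 2% galactose.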
# * = called active by the depositor; ? = inconclusive; . = not tested or not shown; & = joins results of further samples; [ ] = remark or other dose. Unless noted, the call rests on the fitted dose curve; in most records, active means well fitted rising curve with a large enough effect; inconclusive means small, poorly fitted or top-dose-only effect; inactive means no such curve, though single readings can be large or run the other way. Potency means the concentration at half of the fitted maximal effect.
structure,Cruzain noTriton,Cruzain inh Det,MARV entry inh,2A StopGo,LASV entry inh,SARS PLpro yeast,RE007 growth inh,NS1 function inh
CCn1c(SCC(=O)Nc2ccc(OC)c(OC)c2)nnc1-c1ccco1,.,.,.,-12.4%,.,-0.1%,-14.0%,3.6%
O=C1OCC(CO)(CO)N=C1NNc1cc(Cl)ccc1Cl,-5.7%,-4.8%,-6.3%,17.5%,4.4%,-0.3%,59.0%,-84.7%
NC(=O)C1CCCN(CC(O)COCc2ccc(Cl)cc2)C1 (stereo not given),.,.,.,10.1%,.,-2.1%,5.9%,-2.2%
CN(C)c1ccc(NC(=O)CN2CCc3ccccc3C2)cc1,.,.,?,30.4%[activator],?,1.2%,-11.7%,4.5%
COc1cc(/C=C2\SC(=S)N(NS(=O)(=O)c3ccc(C)cc3)C2=O)ccc1O,.,.,.,-16.7%,.,-1.1%,-8.7%,-35.6%
CCOc1ccc(NC(=O)Cn2cc(C(=O)c3ccc(CC)cc3)c(=O)c3cc4c(cc32)OCO4)cc1,-3.4%,-2.3%,5.8%[46.1 µM],-16.5%,29.4%[46.1 µM],.,.,.
O=C(Cn1cnc2c(nnn2Cc2ccccc2)c1=O)NCc1ccco1,-9.8%,-0.5%,.,-22.2%,.,-7.7%,12.6%,9.7%
CCc1nnc(NC(=O)CCC(=O)O)s1,-2.8%,8.6%,2.9%,-7.5%,.,6.2%,1.1%,1.5%
CCc1nnc(NC(=O)CSc2nnc(Cc3ccccc3)o2)s1,-0.6%,2.9%,-2.2%,.,?,4.3%,-11.4%,-3.4%
O=C(COc1ccccc1Br)Nc1ccc2c(c1)OCCCO2,.,.,7.3%[46.1 µM],-3.9%,?,-23.0%,-7.3%,-25.5%
CCn1nccc1C(=O)Nc1ccc(Cl)cn1,-6.8%,5.8%,17.0%[46.1 µM],10.3%,8.6%,6.5%,-5.7%,6.1%
N#C/C(=C(\O)c1cc(Cl)sc1Cl)c1nc2ccccc2[nH]1,.,.,1.8%[46.1 µM],-3.5%,20.1%,12.4%,-4.5%,10.9%
CNc1c([N+](=O)[O-])cnn1-c1ccccn1,.,.,?,9.9%,3.0%,2.1%,2.1%,1.0%
COc1cc(C(=O)NCC2(N(C)C)CCCCC2)ccc1OCc1ccccc1,.,.,?,-13.8%,.,29.7%,34.6%,3.9%
COc1ccc(NC(=O)CN2CCC(C(N)=O)(N3CCCCC3)CC2)cc1,3.5%,5.3%,4.1%,14.7%,5.9%,5.8%,-3.8%,11.1%
CCOc1ccc(S(=O)(=O)N(CC(=O)NCc2cccnc2)c2ccc(F)cc2)cc1,.,.,-22.5%[46.1 µM],?,?,4.2%,0.2%,-11.5%
CCOc1ccc(N(CC(=O)NCCc2ccc(C)cc2)S(=O)(=O)c2c(C)noc2C)cc1,.,.,.,-12.0%,.,-3.8%,4.6%,-4.2%
O=C(CCN1C(=O)/C(=C/c2ccccc2)SC1=S)NC1CCS(=O)(=O)C1 (stereo not given),.,.,2.8%[46.1 µM],-2.7%,10.2%[46.1 µM],3.1%,4.0%,-6.9%
S=C(Nc1ccccc1)Nc1nccs1,6.2%,-4.6%,14.1µM*,34.3%[activator],14.6µM*,-1.7%,.,-32.6%&-46.9%
O=C(O)C1C2CCC(C2)C1C(=O)NCc1ccco1 (stereo not given),0.2%,2.6%,5.8%,-11.9%,-2.3%,-0.3%,-0.1%,-1.1%
O=C1CCCN1CCCNc1nc2c(S(=O)(=O)c3ccccc3)nnn2c2ccc(Cl)cc12,.,.,.,10.6%,.,-1.9%,-2.9%,16.8%
O=C(CCC(=O)N(Cc1ccco1)C(C(=O)NC1CCCC1)c1ccncc1)Nc1cccnc1 (stereo not given),0.4%,0.4%,18.5%&18.5%,21.5%,18.4%,9.3%,-6.4%,-8.8%
CC(=O)c1cc(-c2ccc(F)cc2)n(CCC(=O)Nc2cccnc2)c1C,.,.,-0.5%[46.1 µM],-2.2%,0.8%[46.1 µM],-1.5%,2.6%,.
COc1ccc(-c2cn3ccsc3n2)cc1,-11.9%,3.3%,?,15.0%,?,-13.6%,-26.9%,-46.2%
COCCN(C(=O)COC(=O)c1ccccc1Oc1ccccc1)c1c(N)n(Cc2ccccc2)c(=O)[nH]c1=O,.,.,-23.5%,-23.0%,-0.5%,27.6%,-9.0%,-25.0%
CSc1ccc(-c2cc(=O)c3ccccc3o2)cc1,3.4%,-0.2%,?,21.1%,26.3%,-21.0%,?,-21.9%
CC(=O)c1c2c3c(c(Br)ccc3n(C)c1=O)C(=O)c1ccccc1-2,.,.,0.3%[46.1 µM],-12.9%,-16.9%,-0.6%,1.5%,-0.9%
CC1Cc2ccccc2N1C(=O)c1ccc(N2CCCCC2)c([N+](=O)[O-])c1 (stereo not given),3.0%,-8.4%,-25.1%,-14.1%,?,-32.2%,9.7%,5.9%
COc1ccc(OCC(=O)Nc2c3c(nn2-c2ccc(OC)cc2)CS(=O)(=O)C3)cc1,.,.,-0.9%,-23.5%,18.1%,-0.4%,-3.3%,0.8%
CC(=O)c1c(COC(=O)c2cccnc2)nc2ccccc2[n+]1[O-],3.1%,3.9%,?,-2.0%,-1.1%,1.8%,4.7%,5.01µM*
C=CCSC1=C(C#N)C2(CCCCC2)C(C#N)C(=O)N1 (stereo not given),6.6%,-1.4%,5.3%,-3.8%,2.9%,-1.0%,-2.8%,7.8%
CC(=O)c1cc(F)c(N2CCCC2)cc1C,-6.4%,-3.7%,8.1%,1.9%,9.3%,2.2%,0.0%,-17.5%
CCN(CCO)c1nc(NCc2ccccc2)c2cnn(C)c2n1,.,.,.,16.6%,.,16.0%,5.8%,-0.9%
COc1ccc(C(=O)N/N=C2\CCc3ccccc32)cc1OC,.,.,?,25.7%,-16.4%[46.1 µM],-2.0%,-8.7%,3.2%
CS(=O)(=O)N(CC(=O)N1CCCCCC1)c1cccc(Br)c1,-1.5%,0.5%,-5.7%,5.6%,5.6%,-1.0%,1.3%,29.4%
Cc1cccn2c(=O)c(/C=C(\C#N)C(=O)NC3CCS(=O)(=O)C3)c(N3CCC(C)CC3)nc12 (stereo not given),15.4%,-6.8%,-6.2%,-14.4%,-0.1%,14.5%,0.7%,-8.5%
CCOC(=O)c1c(C)n(Cc2ccc3c(c2)OCO3)c2ccc(O)cc12,-12.2%,0.0%,-27.5%,?,13.5%,-0.1%,-15.3%[3.69 µM],-18.7%
COc1cccc(-c2cc(C(=O)Nc3ccc(Br)c(C)c3)[nH]n2)c1,12.6µM*,-1.2%,.,9.8%,?,.,.,.
CCOc1ccc(-n2c(SCC(=O)Nc3nccs3)nc3c(c2=O)SCC3)cc1,-12.4%,-5.9%,.,-24.2%,.,2.1%,15.0%,-7.0%
COc1ccc2ccccc2c1CNCc1ccc(C)cc1,.,.,10µM*,-22.1%,-5.9%[46.1 µM],16.8%,-8.7%,-9.6%
CCOCCCNC(=O)C(C)NS(=O)(=O)c1ccc(C)cc1 (stereo not given),3.8%,1.9%,?,22.9%,10.1%,-3.3%,21.0%,-1.9%
O=C1NC(=O)/C(=C\c2ccccc2Oc2ccc(F)c(F)c2)S1,25.1µM*,-7.3%,11.4%,?,2.0%,2.5%,-13.0%,6.7%
Cc1ccnc(NC(=S)NC(=O)/C=C/c2ccc(Cl)cc2)c1,3.98µM*,2.9%,9.7%,-1.6%,23.0%,0.7%,-2.2%,-10.0%
O=S(=O)(Nc1nc2ccccc2nc1OCC(F)(F)F)c1cccs1,.,.,.,-14.2%,.,0.1%,-8.1%,-38.2%
CCN(CC)S(=O)(=O)c1cccc(NC(=O)C2SC(=Nc3ccc(C)cc3C)C(C(=O)NC(C)COC)=C2N)c1 (stereo not given),-11.2%,1.3%,-50.4%[46.1 µM],?,?,2.7%,-14.7%,12.6µM*
Cc1ccc(S(=O)(=O)N(C)C)cc1NC(=S)NC(C)CCCC(C)C (stereo not given),29.6%,-9.5%,?,?,?,21.7%,5.7%,4.2%
Cc1cc(Cl)ccc1OCC(=O)OC(C)C(=O)NC(N)=O (stereo not given),-3.8%,-2.3%,18.2%,-15.9%,39.6%,3.7%,-9.0%,-1.2%
O=C(Cc1ccc2ccccc2c1)Nc1ccccc1Br,.,.,13.9%,5.6%,?,0.6%,11.7%,6.5%
COCCn1c(=O)[nH]c2cc(C(=O)NCCCN3CCN(c4ccc(F)cc4)CC3)ccc2c1=O,-9.0%,0.2%,-2.9%&-2.9%,?,5.8%,3.0%,-9.3%,1.8%
Cc1cccc(C(=O)Nc2ccc(N3CCN(c4ccc(F)cc4)CC3)c(C(=O)O)c2)c1,3.7%,2.6%,.,2.3%,2.0%[46.1 µM],.,.,.
COc1ccc(-n2c(C)cc(C(=O)Cn3c(NCCO)nc4ccccc43)c2C)cc1,6.3%,0.2%,?,-25.0%,?,5.3%,37.9%,-2.8%
CCOC(=O)c1c(NC(=O)c2ccccc2C(=O)O)sc2c1CCC2,.,.,.,-20.2%,.,-4.5%,0.4%,0.0%
CCC(=O)N1CCc2cc(S(=O)(=O)CCC(=O)Nc3ccc(C)cn3)ccc21,.,.,1.1%,-8.9%,-8.1%,0.3%,2.1%,3.1%
CC1CCN(CCCNC(=O)CCCNC(=O)Cn2cnc3sc4c(c3c2=O)CCCC4)CC1,4.0%,0.6%,?,7.0%,15.8%,0.3%,-6.5%,6.1%
Cc1cccc(OCC2=N/C(=C\N(C)C)C(=O)O2)c1,-9.4%,-4.4%,0.0%[46.1 µM],16.2%,3.9%,4.5%,5.6%,2.6%
CCOC(=O)CSc1nsc(SCC(=O)OCC)c1C#N,-8.8%,-1.3%,14.9%[46.1 µM],9.1%,3.8%,-13.0%,-16.2%,1.1%
CCOC(=O)c1c(-c2ccccc2)csc1NC(=O)c1cc(=O)c2ccc(C)cc2o1,-3.1%,-1.7%,-19.2%[46.1 µM],0.0%,12.3%[46.1 µM],.,.,.
CCOC(=O)NC1(Nc2ccc(C)cc2)Oc2ccccc2O1,-9.2%,-1.3%,-11.9%,12.8%,?,1.4%,-14.3%,10.5%
